YopH PTP inh – inhibitors of Yersinia enterocolitica YopH tyrosine phosphatase. inhibition, %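 (about 10 µM by stock and volumes)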. fluorescence Ex485/Em525. 0.16% of 140,000 active. AID 898;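 active means inhibition of 50% or more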;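 further: controls were vehicle for no effect and minimum signal wells for full effect; inactives centre near -20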
RecA intein inh – blocks M. tuberculosis RecA intein splicing; P9WHJ3; cell-free RecA intein splicing, fluorescence; 0.75% of 290,000 active; inhibition, %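 (about 9 µM by stock and volumes)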; in the data active means inhibition above about 30%; inconclusive means no clear call, values can overlap the other calls;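 further: 0% = vehicle wells and 100% = reference inhibitor control wells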
Target sequence (P9WHJ3 whole entry, looked up): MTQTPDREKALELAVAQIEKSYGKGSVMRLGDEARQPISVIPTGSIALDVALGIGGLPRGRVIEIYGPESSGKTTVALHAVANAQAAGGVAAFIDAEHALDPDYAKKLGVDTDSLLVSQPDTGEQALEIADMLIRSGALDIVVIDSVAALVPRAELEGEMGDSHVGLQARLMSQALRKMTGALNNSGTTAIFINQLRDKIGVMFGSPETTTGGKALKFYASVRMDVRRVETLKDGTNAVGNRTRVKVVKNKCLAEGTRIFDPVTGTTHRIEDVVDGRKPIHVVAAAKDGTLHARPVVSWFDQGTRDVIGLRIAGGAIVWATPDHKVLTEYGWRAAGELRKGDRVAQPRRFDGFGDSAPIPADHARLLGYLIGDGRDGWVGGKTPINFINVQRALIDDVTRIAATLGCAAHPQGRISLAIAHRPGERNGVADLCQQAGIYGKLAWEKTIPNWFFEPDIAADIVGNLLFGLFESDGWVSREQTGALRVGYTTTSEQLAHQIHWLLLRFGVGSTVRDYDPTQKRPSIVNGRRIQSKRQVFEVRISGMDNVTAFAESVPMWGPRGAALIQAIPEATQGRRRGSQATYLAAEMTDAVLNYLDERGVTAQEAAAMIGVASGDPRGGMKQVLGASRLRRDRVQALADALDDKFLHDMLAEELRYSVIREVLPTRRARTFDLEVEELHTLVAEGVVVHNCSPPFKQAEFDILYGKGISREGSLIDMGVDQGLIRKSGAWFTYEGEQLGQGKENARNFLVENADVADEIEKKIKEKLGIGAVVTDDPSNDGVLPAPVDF
Arbovirus inh – antivirals against arbovirus infection; arbovirus infection cell-based antiviral screen; inhibition, % at 10 µM; 0.37% of 200,000 active; AID 1251;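 active means inhibition from about 30%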;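 further: bluetongue infection of BSR cells; cell survival read as ATP light after 72 h; 0% = infected wells without compound and 100% = uninfected wells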
Mtb bLac sens – beta-lactam sensitization of Mtb H37Rv. 0.27% of 330,000 active. inhibition, % at 25 µM. AID 434955. M. tuberculosis H37Rv growth with meropenem, percent inhibition; hits of this screen are not shown here;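 active means about 74% or more and at least 40 points above the plate without the antibiotic, then above 30% in a dose series; inconclusive means first-round hits that could not be retested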;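 further: growth measured after seven days incubation then overnight dye step; 0% = bacteria only wells and 100% = bacteria with antibiotic; twin plates without the antibiotic show which effects depend on it; some results filed as inactive read as strong as hits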
Mtb H37Rv – M. tuberculosis H37Rv growth inhibitors, H37Rv strain (AID 1626); M. tuberculosis H37Rv growth inhibition; higher % means a stronger effect; inhibition, % at 10 µM; hits with a dose series show IC50 in µM; 0.95% of 220,000 active;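 active means confirmed in a dose series; inconclusive means inhibition above 80% but not taken into the dose series; inactive means below 80% or under 30% at every dose of the series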;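 further: bacteria incubated seven days before Alamar blue readout; 0% = bacteria only wells and 100% = bacteria with antibiotic wells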
Arbovirus inh repeat – second read-out of Arbovirus inh, no call of its own (marks repeat the call); inhibition, %; measured here: 10K subset replicate screen; many hits read low in the repeat;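 first of two repeat runs on a subset; 0% = infected and 100% = uninfected wells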
The depositor's hits bear a star; u = inconclusive; x = not tested or not shown; & = joins results of further samples.

SMILES	YopH PTP inh	RecA intein inh	Arbovirus inh	Mtb bLac sens	Mtb H37Rv	others
COC(=O)c1ccc(NC(=O)CSc2nnc(CNc3ccc(OC)cc3)n2C)cc1	-41	-0.3	-2	43	-5%
CCn1c(SCc2cc(=O)[nH]c3ccccc23)nnc1C1CC1	1	1.9	5	-1	1%
CC1(C)CC(=O)C(C(c2ccco2)C2C(=O)CC(C)(C)CC2=O)C(=O)C1	-22	x	10	-11	0%
COC(=O)Nc1nn(-c2ccc(C)cc2)c(=O)c(C#N)c1C	x	19	-5	-8	8%
N=c1c2c(ncn1CCN1CCOCC1)Oc1ccc3ccccc3c1C2c1ccccc1 (stereo unspecified)	-18	1.1	-28	9	-7%
O=C(NCCCN1CCOCC1)c1ccc2c(=O)n(-c3ccc(F)c(Cl)c3)c(=S)[nH]c2c1	x	-1.3	x	3	x
O=C(CN(c1ccccc1)S(=O)(=O)c1ccccc1)N1CCN(Cc2ccc3c(c2)OCO3)CC1	20	4.7	-4	-11	-2%
Oc1ccc2nc(Cc3ccccc3)[nH]c2c1	-8	-2.7	-3	-10	-8%
CCOC(=O)C1C(=O)NCC2CCCC21 (stereo unspecified)	-24	-3.9	6	-8	-9%
COc1ccc(S(=O)(=O)N2CCC(C)CC2)cc1OC	x	0.0	x	7	x
CC(=O)Nc1nc2c(s1)C(=O)NCCC2	x	1.2	1	1	-1%
O=C(O)c1cccc(S(=O)(=O)NCc2cccs2)c1	-18	x	2	-2	3%
Cc1ccc(/C=N/n2cnc3sc(-c4ccccc4)cc3c2=O)o1	-21	-0.9	1	62	42%
CCOc1ccc(OCc2ccc(C(=O)Nc3ccc(Cl)cn3)o2)cc1	-42	-2.6	-22	65	u
O=C(c1cn(Cc2ccccc2)c2ccccc12)N1CCCCC1	x	4.6	16	-8	9%
Cn1c(CCN2CCCCC2)nc2cc(NC(=O)COc3ccc(Cl)cc3)ccc21	x	-1.1	x	-7	x
CC(C)OCCCNC(=O)C1CCC(CNS(=O)(=O)c2ccccc2)CC1 (stereo unspecified)	-31	2.1	2	-2	0%
CCC1(CC)C(=O)N(C)C(=O)NC1=Nc1ccc(OC)cc1	-6	2.2	1	-1	-7%
O=C(C1=C(O)C(=O)N(CCN2CCOCC2)C1c1cccc(Br)c1)c1cccs1 (stereo unspecified)	x	1.3	x	-1	x
NC(=S)c1cc2cc(Br)ccc2oc1=O	x	1.3	-1	3	43%
CSc1ccc(Cl)c(C(=O)NCCCn2ccnc2)c1	x	-0.5	x	1	x
COc1ccccc1OCc1nnc(SCC(=O)N2CCCC2)o1	x	-0.7	x	-8	x
CC(C)c1csc(CN2CCCC(CNC(=O)c3cccc4ccccc34)C2)n1 (stereo unspecified)	x	-6.9	x	-6	x
CCOC(=O)CCNC(=O)N1CCC(CCOc2ccccc2)(C(=O)OCC)CC1	x	0.1	x	-8	x
CCC1Oc2ccc(C)cc2N(CC(=O)NCCN2CCOCC2)C1=O (stereo unspecified)	x	-0.7	x	2	x
Nn1c(SCC(=O)Nc2cc(S(=O)(=O)N3CCOCC3)ccc2Cl)nnc1-c1cccnc1	x	-1.9	6	-7	0%
COC(=O)c1ccccc1NC(=O)Cn1nc2n(C)c3ccccc3n2c(=O)c1=O	-24	-22	-11	-2	-10%
O=C1CCSc2cccc3cccc(c23)N1	-39	-9.0	4	10	7%
Cc1onc(-c2ccccc2Cl)c1C(=O)NC1CCCCCC1	x	1.0	x	4	x
COc1cccc(/C=C/c2ccccn2)c1O	x	-1.7	x	-6	3%
Cc1ccc(NC(=O)c2ccc(OC(=O)CCN3C(=O)c4ccccc4C3=O)cc2)cc1	-38	1.0	0	-9	-9%
CC1=C(C)CC(C(=O)NC2CCN(C(C)C)CC2)C(C(=O)O)C1 (stereo unspecified)	x	-4.9	x	0	x
Cc1ccc(-c2nn(C)c(=O)c3ccccc23)cc1CNC(=O)c1ccco1	-11	0.6	-13	1	-1%	Arbovirus inh repeat=-7
Cc1oc2nc(SCC(=O)NC3CCCCC3)nc(N)c2c1C	-32	-3.7	x	25	-4%
N#C/C(=C\c1c(N2CCCCC2)nc2ccccn2c1=O)C(=O)NCc1ccco1	-45	-1.9	2	3	-7%
COc1ccc(/C=N/N(C)C2=NS(=O)(=O)c3ccccc32)cc1	x	-18	x	5	x
S=c1[nH]c2ccc3ccccc3c2[nH]1	x	0.3	-2	93	24µM*
Cc1cc(C(=O)CSc2nncs2)c(C)n1Cc1ccco1	x	-0.4	-16	-2	3%
O=C1OCCN1C(=O)[C@H]1[C@H](c2ccc(F)cc2)C(c2ccc(F)cc2)=NN1c1ccccc1	-9	-15	-21	11	-4%
CSc1ccc(-c2nc(CSCC(=O)NCCCN3CCCC3=O)c(C)o2)cc1	x	0.1	x	2	x
CCC(=O)O[C@@H]1CC(=O)O[C@H](C)CC=CC=C[C@@H](O)[C@H](C)C[C@H](CC=O)[C@H](O[C@H]2O[C@H](C)[C@@H](O[C@H]3C[C@@](C)(O)[C@@H](OC(=O)CC)[C@H](C)O3)[C@H](N(C)C)[C@H]2O)[C@H]1OC	x	-2.3	x	x	2%
Cc1cc(C)c(OCC(=O)OC(C)C(=O)N2CCc3ccccc32)c(C)c1 (stereo unspecified)	x	8.7	x	36	x
CCCNC(=O)/C(C#N)=C1\N=C(NC(=O)c2ccco2)c2ccccc21	x	3.6	x	9	x
COc1ccc2nc(NC(=O)CSc3nnc(N)s3)sc2c1	-18	0.2	-4	7	-7%
O=C(Nc1cccc(/C=C/c2ccccn2)c1)c1ccc(-n2cncn2)c([N+](=O)[O-])c1	x	-1.5	x	58	x
N#C/C(=C(/O)CCCl)c1ccccn1	x	-315	14	-15	-9%
CC(C)(C)c1ccccc1OCC(=O)NCc1ccccc1	x	1.2	x	2	x
Cc1ccc(-c2nc(N)n(C(=O)Cc3ccccc3)n2)cc1	-16	2.4	-1	4	x
O=C(O)CN1C(=O)CCS(=O)c2ccccc21 (stereo unspecified)	-10	x	-1	11	-4%
CCN(CC)CCNC(=O)C12CC3CC(C)(CC(C)(C3)C1)C2	-8	-1.9	-8	-1	-5%
CN(CCc1ccccn1)c1ncnc2[nH]ncc12	-3	x	-2	-6	2%
COc1ccc(CN(C)CC(=O)Nc2cc(OC)c([N+](=O)[O-])cc2C)c(OC)c1	-45	-2.6	22	12	1%
COC(=O)c1nccc2c1[nH]c1ccccc12	x	-2.0	x	-3	x
CC(=O)NN1C(=O)/C(=C/c2ccc(Br)o2)SC1=S	-2	0.4	4	-2	-1%
O=C(CC1CCCCC1)NCc1ccccc1	x	15	x	0	x
O=c1[nH]nc(CNc2ccc(C(F)(F)F)cc2)c2ccccc12	x	0.6	9	4	5%
CC(=O)c1ccc(NC(=O)C2=CC(c3ccc4c(c3)OCO4)=NS(=O)(=O)N2C)cc1	x	1.0	x	-7	x
CC1CCN(c2ncnc3ccccc23)CC1	-22	-1.9	17	-7	-8%
Cc1ccccc1OCC(=O)O/N=C(\N)Cc1ccc(Cl)cc1	12	6.1	0	18	0%
CC(C)(C)c1ccc(OCc2ccc(C(=O)Nc3cccnc3)o2)cc1	x	0.2	x	5	x

Looked up by compound from the entries so far, four records:
SMILES	YopH PTP inh	RecA intein inh	Arbovirus inh	Mtb bLac sens	Mtb H37Rv	others
CCC1(CC)C(=O)N(C)C(=O)NC1=Nc1ccc(OC)cc1	-6	2.2	1	-1	-7%
CSc1ccc(-c2nc(CSCC(=O)NCCCN3CCCC3=O)c(C)o2)cc1	x	0.1	x	2	x
N=c1c2c(ncn1CCN1CCOCC1)Oc1ccc3ccccc3c1C2c1ccccc1 (stereo unspecified)	-18	1.1	-28	9	-7%
CC(C)(C)c1ccccc1OCC(=O)NCc1ccccc1	x	1.2	x	2	x

(next part)
SMILES	YopH PTP inh	RecA intein inh	Arbovirus inh	Mtb bLac sens	Mtb H37Rv	others
CSc1ccccc1NC(=O)c1csc(C)c1	x	1.5	x	-13	x
O=C(Oc1ccc2ccc(O)cc2c1)c1ccccc1Cl	x	8.1	x	86	x
CC(C)(C)OC(=O)NCC(=O)NCC(=O)OCc1ccccc1	-34	-3.7	2	-4	-4%
CCSc1nc2c(sc3nc(C)cc(C)c32)c(=O)[nH]1	-25	x	37*	x	x
CCC(C)N(C(=O)C(F)(F)F)C(C(=O)NC1CCCCC1)c1ccncc1 (stereo unspecified)	-19	1.2	-4	-4	-6%
CN(C)CCCN(C(=O)c1ccc(S(=O)(=O)N2CCCc3ccccc32)cc1)c1nc2ccc(F)cc2s1	x	9.0	x	-5	x
COc1cc(C)cc2oc(=O)c(CC(=O)N3C[C@H]4C[C@@H](C3)c3cccc(=O)n3C4)c(C)c12	x	-1.1	x	9	x
Cc1cc(C)n2nc(C(=O)NCc3ccccc3)nc2n1	-5	7.7	6	-15	4%
CCOC(=O)C1=C(NC#N)OC(C)=C(C)C1c1ccc(O)cc1 (stereo unspecified)	17	-3.3	1	5	-4%
CC(=O)Nc1ccc(S(=O)(=O)N2CCN3CCCC3C2)cc1 (stereo unspecified)	x	-1.6	x	2	x
CCN1CCCc2cc(CN(CCN3CCOCC3)C(=S)Nc3ccccc3OC)ccc21	x	-4.4	5	-1	9%
Cc1cc(C)nc(SCc2nnc(SCC(=O)Nc3c(C)cccc3C)o2)n1	12	x	0	-2	-4%
CCC(CC)N1CCN(CCc2ccccc2)C(CCO)C1 (stereo unspecified)	x	0.3	-8	-6	3%
CCOc1ccccc1NC(=O)C(CC(C)C)NC(=O)C1CCC(C)CC1 (stereo unspecified)	-8	0.6	4	4	-6%
CCn1cc2nc(SCC(=O)Nc3ccc(OC)c(OC)c3)n(Cc3ccc(OC)cc3)c(=O)c2n1	x	-0.3	x	1	x
CC(C)S(=O)(=O)C/C(N)=N/OS(=O)(=O)c1ccc(Cl)cc1	x	2.6	x	0	-3%
CCn1c(=O)c(=O)[nH]c2cc(C(=O)NCC3CCCCC3)ccc21	-21	2.1	2	-2	4%
COc1cccc(NC(=O)CSCc2cc(=O)n3nc(C4CC4)sc3n2)c1	x	1.1	x	2	x
Cc1ccc(-c2nc(C)sc2CC(=O)NCc2ccco2)cc1	-24	1.0	16	x	-1%
CCOc1cc2c(C#N)c(N(CC)CC)nc(N)c2c(N)n1	x	7.3	x	100	24%
COC(=O)c1c(N)sc(C(=O)N2CCOCC2)c1C	12	1.7	7	-17	-6%
CCCc1nnc2n1N=C(c1ccc([N+](=O)[O-])cc1)CS2	x	-3.9	x	-5	3%
CCC(=O)NC(c1ccc(N(C)C)cc1)c1c(O)ccc2ccccc12 (stereo unspecified)	x	-3.9	3	40	84%
CC1CC(C)CN(S(=O)(=O)N2CCCC(C(=O)NCCc3ccccc3)C2)C1 (stereo unspecified)	x	-1.5	x	0	x
CCOC(=O)Cn1c(-c2ccccc2)cc(SC)c(C#N)c1=O	x	2.9	x	7	x
COc1ccc(OC)c(S(=O)(=O)NCC(c2ccco2)S(=O)(=O)c2ccccc2)c1 (stereo unspecified)	x	0.4	x	-9	x
Cn1cccc1/C=C1\CCC/C(=C\c2cccn2C)C1=O	-17	-1.7	25	71	0%
CCOc1ccc(CNc2ccc(N3CCOCC3)c(C(=O)O)c2)cc1	-39	-1.8	9	-9	1%
CCCCCC1=NN2C(=O)CC(=O)N=C2S1	x	7.5	x	-5	-9%
O=C(CSc1ccc(-c2cccs2)nn1)N1CCCCCC1	-21	2.2	7	0	-2%
c1ccc(C2Nc3ccccc3-c3nc4ccccc4n32)nc1 (stereo unspecified)	-20	-12	5	-3	-9%
CCC(C)NC(=O)c1cc(CC(C)C)on1 (stereo unspecified)	-22	-1.1	1	-6	2%	Arbovirus inh repeat=11
CN(C)[C@@H]1C(=O)C(C(N)=O)=C(O)[C@@]2(O)C(=O)C3=C(O)c4c(O)cccc4[C@@](C)(O)[C@H]3[C@H](O)[C@@H]12	-12	1.9&-5.3	0	2&9&11	12%
Brc1ccc(/C=N/N2CCN(C3c4ccccc4-c4ccccc43)CC2)s1	-43	6.9	2	-3	6%
COC/C=C/C1=CC2=CC(=O)C(C)(OC(=O)c3cnc4ccccc4n3)C(=O)C2=CN1CCCCO (stereo unspecified)	x	5.5	x	-2	13%
CCOc1ccccc1-n1c(O)c(C=NCCCn2ccnc2)c(=O)[nH]c1=O	x	0.1	x	-5	2%
COc1cc(NC(=O)Cc2c(C(=O)O)n(C)c3ccccc23)cc(OC)c1OC	x	-1.3	2	1	-7%
Cc1nnsc1C(=O)Nc1ccccc1	-20	2.6	-10	-9	-3%

Reprinted from the entries so far (2 entries):
SMILES	YopH PTP inh	RecA intein inh	Arbovirus inh	Mtb bLac sens	Mtb H37Rv	others
COC(=O)c1c(N)sc(C(=O)N2CCOCC2)c1C	12	1.7	7	-17	-6%
CCCc1nnc2n1N=C(c1ccc([N+](=O)[O-])cc1)CS2	x	-3.9	x	-5	3%

A portion of the library; the hit share may differ from the screen's.
